# Assay outcomes (PubChem BioAssay)
# 2A firefly: FMDV 2A StopGo reporter, firefly signal; hit rate 0.23% among 120,000; AID 1745856; Potency, µM (doses to about 57.5 µM), inactives show at the highest dose signal change, negative = less light; HEK cells with a luciferase reporter of 2A StopGo recoding; active = well fitted falling curve with a large enough effect; inconclusive = small, poorly fitted or top-dose-only effect; inactive = no such curve, though single readings can be large or run the other way; also: nearly all actives have a fitted effect of over 60% in size; overnight with compound
# 2A Renilla: lowers the Renilla signal of an FMDV 2A StopGo reporter; HEK cells with a luciferase reporter of 2A StopGo recoding; Potency, µM (top dose mostly 57.5 µM), inactives show at the top dose signal change, negative = less light; hit rate 0.32% among 120,000; AID 1745857; active means well fitted falling curve with a large enough effect; inconclusive means small, poorly fitted or top-dose-only effect; inactive means no such curve, though single readings can be large or run the other way; also: nearly all actives have a fitted effect of over 55% in size; overnight with compound
# * marks the source's active call; other numbers are inactive results; ? = inconclusive; [ ] = dose if it differs, or a comment. % is scaled to controls: 0 for no effect and ±100 for the full control effect; potency is read from the fitted curve at half-maximal effect.
SMILES,2A firefly,2A Renilla
COc1cc(NC(=O)Cc2noc3ccccc23)cc(OC)c1OC,45%[activator],6%
O=C(c1ccc2ncsc2c1)N1CCN(C(=O)c2cccs2)CC1,17%,8%
C[C@](N)(Cc1ccc(O)c(O)c1)C(=O)O,19%[11.5 µM],-9%
O=C(Nc1ccc2nc3n(c(=O)c2c1)CCCCC3)C(=O)N1CCN(c2ccccc2)CC1,9%,13%
CN(Cc1nc2ccccc2o1)Cc1ccc(Cl)cc1Cl,44%[activator],2%
O=C(CSc1nnc2scc(-c3ccccc3)n12)Nc1ccc(Cl)cc1,-5%,-2%
COC(=O)c1c(NC(=O)c2nc(SCc3ccc(C)cc3)ncc2Cl)sc2c1CCCC2,-8%,-11%
O=C(c1ccco1)N(Cc1cccnc1)c1nc2ccc(F)cc2s1,50%[activator],14%
COC(=O)c1c(N)n(-c2cc(Cl)cc(Cl)c2)c2nc3ccccc3nc12,12%,-1%
O=C(CSc1nnc(CNC(=O)c2c(F)cccc2Cl)o1)Nc1cccc(F)c1,35%,-10%
COc1ccc(OC)c(Nc2nc(-c3ccc(C)cc3)nc3ccccc23)c1,-12%,2%
CCc1ccccc1NC(=O)c1nn(C)c(=O)c2ccccc12,0%,4%
O=C(NC1CCCCC1)C1CC=CCC1c1nc2ccccc2s1 (centres undefined),14%,75%[activator]
O=C1CCc2cc(-c3csc(NC4CC4)n3)ccc2N1,83%[activator],26%
COC(=O)c1c(-c2cccs2)csc1NC(=O)c1ccc(Br)cc1,10%,-10%
CC(OC(=O)c1n[nH]c(=O)c2ccccc12)C(=O)Nc1cc(F)ccc1F (centres undefined),-9%,-10%
C[C@@H]1COc2cc(Br)ccc2S(=O)(=O)N1Cc1cn(Cc2ccc(Br)cc2)nn1,1%,19%
OC1COc2ccccc2OCCOCCOc2ccccc2OC1,-5%,15%
CC(=O)Nc1ccc(NC(=O)c2ccc(N(C)C)cc2)cc1,84%[activator],-1%
CCN(CC)S(=O)(=O)c1nnc(NC(=O)COc2ccc(Cl)cc2)s1,6%,-6%
COc1ccc(-c2nc3n(n2)C(c2ccccc2)C(C(=O)Nc2cccnc2)=C(C)N3)cc1 (centres undefined),-16%,-7%
Cc1cc(Nc2cccc(Cl)c2)nc2ccc(NC(=O)c3cccc(N(C)C)c3)cc12,63%[activator],7%
CCSc1nc2ccccc2c(OCc2ccccc2Cl)c1C(=O)OC,-6%,5%
O=C1/C(=C/c2ccccc2Br)Cc2ccccc21,15%,162%[activator]
CCc1sc(C(=O)OCC(=O)c2ccc(OC)cc2OC)cc1C,31%[activator],60%[activator]

# Given as labelled records: part of the list above.
Molecule: O=C(CSc1nnc2scc(-c3ccccc3)n12)Nc1ccc(Cl)cc1
  2A firefly: -5%; 2A Renilla: -2%
Molecule: COC(=O)c1c(NC(=O)c2nc(SCc3ccc(C)cc3)ncc2Cl)sc2c1CCCC2
  2A firefly: -8%; 2A Renilla: -11%

# Carrying on:
SMILES,2A firefly,2A Renilla
Cc1cc(Cl)ccc1NC(=O)Cn1nc(C)c2ccccc2c1=O,-2%,-6%
CC1(C)CC(NC(=S)NC2CC3CCC2C3)CC(C)(C)N1 (centres undefined),-10%,-6%
O=C(CN1c2ccc(Br)cc2-c2ccccc2S1(=O)=O)N1CCCCC1,5%,41%[activator]
CN(Cc1ccc(Cl)cc1Cl)S(=O)(=O)c1cccc2nsnc12,8%,21%
O=C(CN(CC1CCOC1)C1CC1)NC1CC1 (centres undefined),6%,8%
Cc1cccc(OCC(O)CN2CCCN(c3ccc(C(F)(F)F)cn3)CC2)c1 (centres undefined),-2%,-6%
COc1ccc(OC)c(CCNC(=O)CN2C(=O)COc3ccc(S(=O)(=O)N4CCCCCC4)cc32)c1,0%,100%[activator]
O=C(O)c1cc(S(=O)(=O)Nc2ccc(Cl)c3cccnc23)ccc1Cl,-1%,1%
N#Cc1ncn(Cc2nnc(-c3ccccc3)o2)n1,11%,-18%
CCCNC(=O)CSc1ncc(-c2ccccc2)o1,154%[activator],18%
O=C(COc1ccc(S(=O)(=O)NC2CCCCC2)cc1)Nc1ccc(C(F)(F)F)cc1,-5%,303%[activator]
CCCC(=O)N1CCCN(C(C)C(=O)Nc2ccccc2Cl)CC1 (centres undefined),-6%,-16%
O=C(CSc1nnc2scc(-c3ccc(Cl)cc3)n12)Nc1cccc(C(F)(F)F)c1,14%,27%
Cc1ccc(CNC(=O)CN2C(=O)CSc3ccc(S(=O)(=O)N(C)C)cc32)cc1,0%,15%
CCN(CC)S(=O)(=O)c1cc(N2C(=O)CCS2(=O)=O)ccc1OC,4%,2%
COC(=O)CNC(=O)Nc1cc(C(=O)NCc2ccc(C(C)C)cc2)ccc1N1CCCC1,8%,-6%
CCSc1sc(CC)cc1C(C)=O,10%,6%
Cc1cccnc1NC(=O)c1cc(-c2cccnc2)nc2ccccc12,10%,4%
CC(C)CNCc1ccc(-c2ccccc2Cl)o1,47%[activator],4%
COc1cccc(N2CCN(C3C(=O)c4ccccc4N3C(C)=O)CC2)c1 (centres undefined),1%,6%
CC(C)NC(=O)NCCn1c(-c2ccccc2)nc2ccccc21,23%,9%
COc1ccc(OC)c(Nc2nc(-c3ccccc3O)nc3ccccc23)c1,-17%,-20%
CC(=O)N1CCc2cc(NC(C)C(=O)Nc3ccc(OC(F)F)cc3)ccc21 (centres undefined),30%,-1%
Cc1ccc(Nc2cc(-c3ccccc3)nc(C)n2)cc1,137%[activator],5%
COCCN1Cc2cccc(C(=O)Nc3ccc(Cl)cc3Cl)c2C1=O,-3%,18%
SMILES,2A firefly,2A Renilla
N#Cc1cccc(OCC(=O)c2ccc3c(c2)CCC3)c1,63%[activator],26%
O=S1(=O)CCN2C(c3cc(F)ccc3F)=CSC2=N1,-11%,-3%
Oc1ccc(Cl)c2cccnc12,-23%,-13%
COc1ccc(-c2cc(C)no2)cc1S(=O)(=O)Nc1cccc(C(F)(F)F)c1,?,-11%
O=C(c1ccc2c(c1)CCN2S(=O)(=O)c1ccc(Cl)cc1)N1CCN(c2ccccc2)CC1,13%,0%
Cc1nc(NC(=O)c2c(F)cccc2Cl)sc1C,132%[activator],-5%
COC(=O)c1ccc(COC(=O)COc2ccc(OCc3ccccc3)cc2)o1,?,3%
CCOC(=O)CC(SP(=S)(OC)OC)C(=O)OCC (centres undefined),-15%,-11%
CCc1nc2nc(C)cc(Nc3cccc(C)c3C)n2n1,0%,-9%
COC(=O)c1scc(-c2ccccc2)c1S(=O)(=O)Nc1ccccc1,-2%,167%[activator]
Cc1ccc(/C=C(\C#N)c2nc(-c3ccc(-c4ccccc4)cc3)cs2)cc1,-10%,-6%
Cc1ccc(-c2csc(-c3ccc(O)cc3)n2)cc1,69%[activator],8%
Cn1c(Cl)c(C=O)c2cc(C=O)ccc21,0%,-7%[1.06 µM]
Fc1ccc(Sc2ncccc2Cl)cc1,-4%,-2%
Cc1ccc(N(CC(=O)Nc2ccc(Cl)cc2)S(=O)(=O)c2cccc3nonc23)cc1,?,102%[activator]
Cc1ccccc1OCC(=O)Nc1ccc(OCc2cc(=O)n3ccccc3n2)cc1,1%,-5%
CCOC(=O)c1c(NC(=O)c2ccoc2C)sc2c1CCCCC2,-4%,-3%
COc1ccc(NC(=O)C2CC(=O)N(Cc3ccccc3)C2)cc1S(=O)(=O)N1CCCCC1 (centres undefined),-8%,37%[activator]
CCCCN1CC(c2nc3ccccc3n2CCCCOc2cccc(C)c2C)CC1=O (centres undefined),?,?
COc1cc(NS(=O)(=O)c2ccc(NC(=O)c3ccc(C(C)=O)cc3)cc2)nc(OC)n1,-5%,-26%
COC1CC(OC2CCC3(C)C(CC[C@@H]4[C@@H]3CCC3(C)C(C5=CC(=O)OC5)C(OC(C)=O)CC43O)C2)OC(C)C1O (some centres undefined),-83%,-76%
O=c1ccc2ccc(OCc3nc(-c4ccccc4)no3)cc2o1,42%[activator],-2%
CC(C)(C#N)/[N+]([O-])=C/c1ccc(Cl)cc1Cl,2%,8%
CCOC(=O)C1CCCN(c2ccc(C#N)cn2)C1 (centres undefined),-10%,-2%
O=S(=O)(c1ccc2nc(N3CCN(c4ccccc4F)CC3)ccc2c1)N1CCCC1,-10%,-7%
SMILES,2A firefly,2A Renilla
CCC(=O)N1CCc2cc(S(=O)(=O)NCCC(=O)Nc3cc(C)ccc3OC)ccc21,-1%,1%
Cc1c(C(=O)Nc2nc(-c3ccc(F)cc3)ns2)oc2ccc(Cl)cc12,-12%,1%
NS(=O)(=O)c1ccc(N/N=C/c2cccc3ccccc23)c([N+](=O)[O-])c1,11%,?
CCOc1cc2sc(N3CCC(C(=O)Nc4ccccc4Cl)CC3)nc2cc1Br,6%,-10%
CCN1CCC(NC(=O)Cc2cn(C)c3ccccc23)CC1,-15%,-13%
CCC(CC)C(CNC(=O)c1ccccc1Br)N1CCOCC1 (centres undefined),-11%,12%
Nc1nnc(SCC(=O)Nc2ccc(Cl)cc2)s1,?,?
C=CCNc1nc(C(=O)OC(C)C(=O)Nc2ccc(N3CCOCC3)cc2)cs1 (centres undefined),12%,-11%
O=C(COc1ccc(Cl)cc1Cl)c1ccccc1,102%[activator],10%
Nc1ccc(C(=O)c2ccc(Cl)cc2)cc1,92%[activator],33%[activator]
CC(/C=N/Nc1ccc(S(N)(=O)=O)cc1[N+](=O)[O-])c1ccccc1 (centres undefined),120%[activator],-17%
CCOC(=O)c1cccc(NC(=O)[C@@H](c2ccccc2)N2Cc3ccccc3C2=O)c1,-9%,260%[activator]
Cc1oc2cc(OCC(=O)Nc3ccc(F)cc3F)ccc2c(=O)c1Oc1ccccc1,34%[activator],2%
COc1cccc(C(=O)Oc2ccc(F)cc2C(=O)/C=C/c2ccc(F)cc2)c1,37%[activator],50%[activator]
CC(C)c1ccc2c(c1)C1(CC(=O)Nc3c1sc(C(=O)O)c3-c1ccccc1)C(=O)N2C (centres undefined),58%[activator],32%[activator]
COC(=O)C1CN(Cc2cn(Cc3ccc(F)cc3)nn2)CCS(=O)(=O)N1Cc1ccc(Cl)cc1 (centres undefined),?,-20%
Cc1nc2ccc(C(=O)OCC(=O)N3CCCCC3)cc2nc1C,6%,-1%
CC(C#N)CN(C)c1nc(-c2ccncc2)nc2ccccc12 (centres undefined),7%,2%
Cc1ccc(/C=C(/C#N)S(C)(=O)=O)cc1,-14%,-2%
CCN(Cc1ccccc1)C(=O)C1CCN(S(=O)(=O)c2c(C)noc2/C=C/c2ccc(C)cc2)CC1,-3%,-10%
N#Cc1ccc(/C=C/C(=O)c2cc3ccccc3o2)cc1,21%,-1%[1.06 µM]
O=C1CCCc2cc(S(=O)(=O)N3CCCC(C(=O)N4CCC5(CC4)OCCO5)C3)ccc2N1 (centres undefined),10%,2%
CCc1cc(=O)oc2c(C)c3c(cc12)CN(CCc1ccccc1)CO3,-1%,-3%
COc1ccc(-c2cn3c(n2)sc2cc(C(=O)NCCCN4CCCCC4)ccc23)cc1,35%[activator],-12%
O=C(Cc1noc(C(=O)NC2CCCC2)n1)Nc1cccc2ncccc12,8%,-9%
SMILES,2A firefly,2A Renilla
Cc1ccc(NC(=O)c2nn(Cc3ccccc3)c(=O)c3ccccc23)cc1F,64%[activator],21%
Cc1ccc(C)c(N2CCN(C(=O)c3cc(S(=O)(=O)N4CCCC4)cn3C)CC2)c1,-14%,-10%
C=CCOc1ccc(C(=O)Nc2cc(C)ccc2C)cc1,172%[activator],9%
O=C(NCC12CC3CC(CC(C3)C1)C2)c1cc([N+](=O)[O-])ccc1Cl,0%,30%
COc1cccc(C2CC(=O)N(c3sc4c(c3C#N)CCCC4)C3=C2C(=O)CCC3)c1OC (centres undefined),22%,10%
O=C(O)CSc1nnc(-c2ccc(O)cc2)o1,-6%,-10%
CCc1ccc2occ(CC(=O)Nc3c(C(=O)Nc4ccc(Cl)cc4)oc4ccccc34)c2c1,10%,7%
O=S(=O)(c1ccc(F)cc1F)N1CCN(Cc2cccc3cccnc23)CC1,-10%,-10%
COc1ccc(NC(=O)Cc2ccc3c(c2)OCCCO3)cn1,83%[activator],7%
O=C(O)Cc1ccc(N2C(=O)C(=O)/C(=C(/O)c3ccc(F)cc3)C2c2ccccc2Cl)cc1 (centres undefined),21%,-1%
COc1ccccc1CNC(=O)CCNS(=O)(=O)c1ccc2c(c1)oc(=O)n2C,14%,34%[activator]
Cc1ccc(CNC(=O)Cn2cc(C(=O)c3ccc(Cl)cc3)c(=O)c3ccc(C)nc32)cc1,-1%,-9%
CSc1ccccc1NC(=O)/C=C\C(=O)O,-8%,-12%
Brc1ccc(-c2noc(C(c3ccccc3)c3ccccc3)n2)cc1,33%[activator],5%
Cc1ccccc1OCCn1cc(C(=O)C2CCCCC2)c2ccccc21,-4%,-14%
Cc1ccc(C(=O)N2CCN(c3oc(C4CC4)nc3C#N)CC2)c(C)n1,-3%,-7%
CCOCCCn1c(=N)c(S(=O)(=O)c2ccc(C)cc2)cc2c(=O)n3cccc(C)c3nc21,-3%,-3%
COC(=O)Nc1cc(C(=O)OC)ccc1C,36%,27%
CCC(C)Nc1nc(-c2ccccc2O)nc2ccccc12 (centres undefined),8%,11%

# Shown with each value named: 2 of the compounds above.
smiles: CCc1ccc2occ(CC(=O)Nc3c(C(=O)Nc4ccc(Cl)cc4)oc4ccccc34)c2c1
  2A firefly: 10%; 2A Renilla: 7%
smiles: O=C(O)CSc1nnc(-c2ccc(O)cc2)o1
  2A firefly: -6%; 2A Renilla: -10%

# 5 entries drawn at random from the list so far:
SMILES,2A firefly,2A Renilla
COc1ccc(NC(=O)Cc2ccc3c(c2)OCCCO3)cn1,83%[activator],7%
CCC(C)Nc1nc(-c2ccccc2O)nc2ccccc12 (centres undefined),8%,11%
COc1cccc(C2CC(=O)N(c3sc4c(c3C#N)CCCC4)C3=C2C(=O)CCC3)c1OC (centres undefined),22%,10%
Cc1ccccc1OCCn1cc(C(=O)C2CCCCC2)c2ccccc21,-4%,-14%
O=C(O)Cc1ccc(N2C(=O)C(=O)/C(=C(/O)c3ccc(F)cc3)C2c2ccccc2Cl)cc1 (centres undefined),21%,-1%

# Only part of the results is shown. The share of hits here may be higher or lower than overall.
